# KCNQ2 pot: potentiators of rat KCNQ2 potassium channel | O88943 | CHO-K1 KCNQ2, FluxOR thallium flux fluorescence; hits give high values | B-score at 10 µM | 0.54% of 310,000 active | AID 2239;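 active means fluorescence ratio B-score at least 3 SD of library B-scores, with initial fluorescence B-score within 3 SD, cut at about 5.3 in these data; same plate scores as AID 2156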;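 further: B-score of peak minus minimum over baseline fluorescence ratio after K+ and Tl+ stimulus; positive B-score means potentiation of KCNQ2 with more thallium influx and brighter signal; only the inactives scoring about 0 or higher are listed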
# Target sequence (O88943 whole entry, looked up): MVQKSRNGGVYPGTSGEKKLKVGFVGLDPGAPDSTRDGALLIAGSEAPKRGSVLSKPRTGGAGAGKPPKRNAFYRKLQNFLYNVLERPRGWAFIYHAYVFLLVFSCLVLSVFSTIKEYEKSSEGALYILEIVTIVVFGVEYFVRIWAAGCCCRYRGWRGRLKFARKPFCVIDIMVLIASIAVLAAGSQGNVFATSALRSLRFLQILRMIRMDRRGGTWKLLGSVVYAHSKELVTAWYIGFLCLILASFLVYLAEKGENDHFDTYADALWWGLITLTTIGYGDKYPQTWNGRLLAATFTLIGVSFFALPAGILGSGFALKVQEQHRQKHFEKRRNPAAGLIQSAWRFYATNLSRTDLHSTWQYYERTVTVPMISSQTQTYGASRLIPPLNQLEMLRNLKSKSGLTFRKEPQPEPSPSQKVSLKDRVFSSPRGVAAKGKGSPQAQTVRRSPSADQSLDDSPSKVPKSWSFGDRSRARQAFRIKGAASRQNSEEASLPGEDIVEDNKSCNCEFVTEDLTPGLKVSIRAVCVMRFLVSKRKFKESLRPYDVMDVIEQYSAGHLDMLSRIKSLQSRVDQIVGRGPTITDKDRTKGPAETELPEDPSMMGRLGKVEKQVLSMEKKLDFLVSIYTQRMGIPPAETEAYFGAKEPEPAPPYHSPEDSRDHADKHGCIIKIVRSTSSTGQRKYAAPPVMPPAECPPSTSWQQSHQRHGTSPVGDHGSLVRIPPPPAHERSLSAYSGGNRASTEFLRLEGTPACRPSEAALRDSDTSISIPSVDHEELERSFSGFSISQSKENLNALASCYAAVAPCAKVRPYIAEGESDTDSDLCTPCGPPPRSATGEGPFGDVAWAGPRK
# KCNQ2 pot baseline: also measured in KCNQ2 pot; calls as there; B-score; compound at 10 µM; measured here: initial fluorescence intensity artifact check;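 brightness before thallium and not channel activity; 0 = typical well and far values either way flag optical interference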
# Active calls of the source: *. A portion of the library; the hit share may differ from the screen's.
SMILES,KCNQ2 pot,KCNQ2 pot baseline
CCCOC(=O)Nc1ccc(S(=O)(=O)Nn2cnnc2)cc1,0.01,-2.5
COc1ccc(NC(=O)c2cc(S(=O)(=O)Nc3ccc(OC)cc3)cs2)cc1,0.82,-0.43
C=CCn1c(SCC(=O)NCCC2=CCCCC2)nc2ccc(Cl)cc2c1=O,1.2,0.86
COc1ccc(-c2c(C)n([O-])c3c([n+]2=O)CCCC3)c(OC)c1,0.78,-0.91
CC1Cc2cc(/C(O)=C3/C(=O)C(=O)N(CCN4CCOCC4)C3c3ccc(C(C)C)cc3)ccc2O1 (configuration not stated),0.09,0.77
COC(=O)C1=C(CSc2nncn2C)NC(=O)NC1c1ccc(F)cc1 (configuration not stated),0.6,0.61
COCCn1c(N)c(C(=S)NC(=O)c2cccs2)c(=O)[nH]c1=O,0.04,1.2
COc1ccc(N2CCN(C(=O)c3ccc(Cn4c(=S)[nH]c5ccc(N6CCOCC6)cc5c4=O)cc3)CC2)cc1,2.1,-0.1
Cc1cccc(NC(=O)N2CCCc3ccccc32)c1C,1,0.49
CCCCn1c(=O)[nH]c(=O)c2c1nc(-c1ccc(OCCC)c(OCC)c1)n2C,0.91,-0.9
COc1cc(CN2CCc3c([nH]c4ccccc34)C2)cc(OC)c1,0.13,0.24
CC1CCCN(CCCNC(=O)c2ccc(NC(=O)C3=CSCCO3)cc2)C1 (configuration not stated),0.04,-0.26
O=C(O)c1cccc(COCC(F)(F)C(F)F)c1,2,-1.6
O=C(NC(=S)N(Cc1ccccc1)c1ccccn1)C1CCCCC1,1.1,-1.5
Cc1ccc(/C=C2\S/C(=N/S(=O)(=O)c3cccs3)NC2=O)cc1,3.2,0.03
COc1ccc2oc(=O)c(C(=O)N3CCN(c4ccccc4)CC3)cc2c1,0.03,0
COCCNC(=O)C(c1ccc(F)cc1)N(Cc1ccccc1)C(=O)CCC(=O)Nc1nccs1 (configuration not stated),0.58,-1.4
COCCCNC(=S)N1CCN(c2ccccc2)CC1,1.3,-0.03
CCCCCCC(=O)Nc1nc(C)c(-c2csc(Nc3cc(OC)ccc3OC)n2)s1,0.12,-0.45
CC(C)(C)C(=O)NC(=S)NNC(=O)c1ccc(-c2ccccc2)cc1,3.7,-0.85
CC(=O)Nc1c(O)nc(C)[nH]c1=O,1.1,0.99
CC(C)OCCCNC(=O)Cc1ccc(F)cc1,0.21,6.4
O=C(CC(c1ccccc1)c1ccccc1)Nc1ccncc1,1.2,0.1
O=S(=O)(c1ccc(Cl)cc1)N1CCNCC1,0.43,0.02
Cc1ccc(-c2nnc(N(C)C(=O)c3cccnc3)s2)cc1,1,-1.3

# Next structures.
SMILES,KCNQ2 pot,KCNQ2 pot baseline
O=c1c2[nH]c3ccc(F)cc3c2nc2n1CCCS2,1.7,-0.22
O=C(CSc1nnnn1C1CCCC1)N1CCN(C(=O)c2ccco2)CC1,1.3,0.08
O=C(O)/C=C/c1cn(-c2ccccc2)nc1-c1ccccc1,0.82,-1.2
Cc1[nH]c2ccccc2c1C(C[N+](=O)[O-])c1cccc(O)c1 (configuration not stated),0.37,0.56
COc1ccc(C(O)P(=O)(OCc2ccccc2)c2ccc(N(C)C)cc2)cc1 (configuration not stated),0.06,0.34
COc1ccc2[nH]cc(C(=O)N3CCCCC3)c(=O)c2c1,0.35,0
Cc1ccc(Nc2nnc(SCC(=O)Nc3cccc(S(=O)(=O)N4CCCCC4)c3)s2)cc1,0.86,-1.4
CSc1n[nH]c(NCc2ccccc2)n1,2.1,2.2
COc1ccc(NC(=O)CN(C)S(=O)(=O)c2ccc3c(c2)OCCO3)c2ncccc12,0.52,0.06
CC1CCN(C(=O)Cn2cnc3c(cnn3C(C)(C)C)c2=O)CC1,0.04,1
Cc1nc2ccccn2c1C(=O)NCCCN1CCOCC1,0.48,-1.2
CC(C)CN(C(=O)c1cccc(S(=O)(=O)N2CCN(Cc3ccccc3)CC2)c1)C1CCS(=O)(=O)C1 (configuration not stated),1.1,-0.99
O=C(Nc1ccc(S(=O)(=O)N2CCCCC2c2cccnc2)cc1)c1ccccc1F (configuration not stated),0.2,-0.9
O=C(NCc1ccncc1)c1cc(S(=O)(=O)N2CCOCC2)c(Cl)cc1Cl,0.39,0.37
Fc1cccc(/C=N/Nc2nccnc2Cl)c1,0.02,0.03
N#Cc1ccsc1NC(=O)CN1CCOCC1,0.02,0.57
O=C(NC1CCCC1)C(c1ccncc1)N(C(=O)c1csnn1)c1ccccc1 (configuration not stated),0.68,0.37
CCOC(=O)C1(CCc2ccccc2)CCN(Cc2ccccn2)CC1,0.61,-0.4
COc1ccccc1C(=O)NCCC(=O)NNC(=O)Cn1ccc(C(F)(F)F)n1,3.1,-0.02
COc1ccccc1N(CN1C(=O)c2ccccc2C1=O)C(=O)c1cccc(C)c1,0.56,-0.84
COc1cc(NC(=O)CSc2ncnc3c2cnn3Cc2ccccc2)cc(OC)c1,0.03,-0.46
Cn1c(CNC(=O)c2cccs2)n[nH]c1=S,0.9,-1.3
Cc1cc(C)c(S(=O)(=O)NCCn2ccc3ccccc32)c(C)c1,0.01,-1.7
CCCc1nc(N)c(C#N)c(-c2cccnc2)c1CC,0.77,0.01
Nc1nc(-c2ccc3c(c2)NC(=O)CO3)cs1,0.12,-0.05

# (next part)
SMILES,KCNQ2 pot,KCNQ2 pot baseline
O=C(Nc1ccc(S(=O)(=O)N2CCCCC2)cc1)c1ccncc1,2,0.81
Cc1ccc(S(=O)(=O)NCCC(=O)OCC(=O)N(C)c2ccccc2)cc1,0.86,0.31
CN(C)C(=O)COc1ccc(Oc2ccccc2)cc1,0.86,-0.26
COc1ccc(C(=O)N2CCCC(C(=O)N3CCCCCC3)C2)cc1 (configuration not stated),0.26,-1.7
CCCNC(=S)Nc1c(C)n(C)n(-c2ccccc2)c1=O,0.17,-0.3
CCc1ccccc1NC(=O)c1nnn(CC(=O)Nc2cccc(C)c2C)c1N,0.56,0.02
Cc1cc(NC(=O)COC(=O)c2cccc(S(=O)(=O)N3CCOCC3)c2)no1,0.67,-1.8
CC1(C)CC(=O)C2=C(C1)OC(=O)C2(NC(=O)c1cccs1)C(F)(F)F (configuration not stated),1.9,-0.68
CCCC(=O)c1c[nH]c(C(=O)NCCCN2CCOCC2)c1,0.26,0.01
COc1ccc2nc(N3C(=O)/C(=C/c4ccccc4)NC3=S)sc2c1,23*,1.7*
Cc1ccc(N2C(=S)N=C(Nc3ccccc3C)C23CCOC(C)(C)C3)cc1 (configuration not stated),1.8,-2.8
Cc1ccccc1NC(=O)c1ccccc1O,0.56,0.38
CCCCc1ccc(NC(=O)N[C@H](C(=O)O)C(C)C)cc1,1.8,-0.37
Cc1ccc(C(=O)N/C(=C\c2ccc(F)cc2)C(=O)NCCN2CCOCC2)cc1,0.82,-1.3
O=C(c1ccc(S(=O)(=O)NCc2ccco2)cc1)N1CCCC1,0.24,1.2
O=C(O)c1cccc(NS(=O)(=O)c2ccc3nnn(O)c3c2)c1,2.5,0.38
COc1ccc(N(CC(=O)Nc2ccc3c(c2)OCO3)S(=O)(=O)c2ccc(C)cc2)cc1OC,0.08,0.73
Cn1c(=O)c2c(nc(SCC(=O)NCc3ccco3)n2C)n(C)c1=O,0.04,-2.5
COc1ccc(C(=O)NC(=O)N2CCCCC2)cc1,2,0.74
CC(C)C(=O)N1CCN(c2nc(-c3ccc(Cl)cc3)cs2)CC1,1.3,-1.1
COC(=O)c1sccc1NC(=O)Nc1cccc(C)c1C,1.6,0.04
O=C(O)/C(=C/c1ccco1)c1ccccc1,2.6,-0.02
CCCN(CCC)CCCNC(=S)Nc1ccc2nc(N3CCCC3)cc(C)c2c1,0.06,1.4
Cc1cc(NC(=O)Cn2c(=O)n(Cc3ccccc3)c(=O)c3ccccc32)no1,1.8,1.1
COCc1cc(=O)n2[nH]c(-c3ccsc3-n3c(C)ccc3C)cc2n1,1.5,-0.19

# Other structures follow:
SMILES,KCNQ2 pot,KCNQ2 pot baseline
Cc1cc(C)cc(-n2c(C)cc(/C=C3\C(=N)N4N=C(CC(C)C)SC4=NC3=O)c2C)c1,0.94,-0.6
O=C(CCCCCN1C(=O)CCC1=O)Nc1ccc2c(c1)OCCO2,0.09,1.1
COc1ccc(-c2noc(=O)n2CC(=O)N2CCC(Cc3ccccc3)CC2)cc1,0.06,-0.15
COc1ccc(C2=Nn3c(nnc3-c3ccccn3)SC2)cc1,1.2,-0.46
CCSc1cc(C2C(C(=O)OC)=C(C)NC3=C2C(=O)CCC3)c(C)o1 (configuration not stated),0.46,0.66
Cc1cc(/C=N/NC(=O)C(=O)N2CCCC2)c(C)n1-c1cccc(Br)c1,0.46,-2.7
COc1cc(OC)c(C2Nc3ccccc3NC3=C2C(=O)CC(C)(C)C3)cc1OC (configuration not stated),0.9,-1.2
O=c1ccc2cc3ccoc3cc2o1,1.4,-0.31
CC(C)C(=O)NC(Nc1cccc([N+](=O)[O-])c1)C(Cl)(Cl)Cl (configuration not stated),0.5,-0.3
COc1cc(S(=O)(=O)N2CCN(c3ccccc3)CC2)ccc1Cl,0.36,-0.67
CCCOc1ccc2ccccc2c1/C=N/n1cnnc1,0.27,0.71
COc1cccc(NC(=O)CC2SC(=Nc3ccccc3)NC2=O)c1 (configuration not stated),0.89,-1.2
O=P(COCCCCCOCP(=O)(c1ccccc1)c1ccccc1)(c1ccccc1)c1ccccc1,1,0.01
O=C(COC(=O)C1CSC2(c3ccc(F)cc3)CCC(=O)N12)NC(=O)NC1CCCC1 (configuration not stated),1.8,2.1
COc1ccc(NS(=O)(=O)c2cc(NC(=O)/C=C/c3cccs3)ccc2N2CCOCC2)cc1,0.36,0
O=C(O)c1ccc(-n2c(-c3ccccc3)n[nH]c2=S)cc1,0.91,-0.85
N#C/C(=C\c1ccc(-c2cccc(C(F)(F)F)c2)o1)C(=O)Nn1cnnc1,1.2,0.51
CC(=O)Nc1ccc(C(=O)N/N=C/c2ccncc2)cc1,0.23,-0.6
COc1ccc(NC(=O)c2cnc(SCC(=O)NCCc3ccccc3)n(C)c2=O)cc1,0.31,-0.11
COc1ccccc1N(CC(=O)NCc1ccc(F)cc1)C(=O)CCC(=O)Nc1nccs1,0.05,-1.8
Cc1nc(NC(=O)c2ccc(Cl)cc2)sc1-c1csc(Nc2cccc(F)c2)n1,0.02,0.67
COCCCC1CCN(C(=O)CCc2nnc(CCCCc3ccccc3)o2)CC1,1.4,-0.99
Cc1ccc(NC(=O)C2CCCN(S(=O)(=O)c3c(C)noc3C)C2)nc1 (configuration not stated),0.02,2
CN(CC(=O)NC1CCN(Cc2ccccc2)CC1)S(=O)(=O)c1ccc(Br)s1,0.01,0.32
COC(=O)CC/C(O)=C1\C(=O)CC(C)(C)CC1=NCc1nc2ccccc2[nH]1,0.45,-0.66

# Continued:
SMILES,KCNQ2 pot,KCNQ2 pot baseline
COc1ccc(CNS(=O)(=O)CCNC(=O)c2ccc3c(c2)OCO3)cc1,0.95,0.71
Cc1ccc(S(=O)(=O)NC(=O)COc2ccccc2C(N)=O)cc1,1.2,1
COCCCNC(=O)c1ccc2nc(Cc3ccc(OC)cc3)oc2c1,0.69,-0.03
C=CCOc1ccc(CN(C)CC(O)COc2ccc(CCC(C)=O)cc2)cc1 (configuration not stated),1.1,-0.09
COc1cccc(S(=O)(=O)N2CCOCC2)c1,1.9,0.19
NC(=O)c1ccc(NC(=O)CCN=C2NS(=O)(=O)c3ccccc32)cc1,1.1,1.1
COc1ccc(C(=O)N/C(=C\c2ccccc2)C(=O)Nc2ccc(C(=O)O)cc2)cc1,0.57,0.72
Cc1ccc(-c2csc3ncn(CC#N)c(=O)c23)cc1C,3.4,0.08
O=C(c1ccc(F)cc1)C1CCN(C(=O)NCc2ccccc2)CC1,0.78,-0.02
CN(C)c1ccc(C2CC(=O)OC3=C2C(=O)CC(C)(C)C3)cc1 (configuration not stated),0.9,0.27
CSc1nc2ccccc2s1,0.45,0.45
COc1ccc(C(=O)NCC(C)CN(C)C)cc1 (configuration not stated),0.29,0.76
O=C(CN(c1ccccc1F)S(=O)(=O)c1ccccc1)N1CCCCCC1,0.03,2.9
Oc1ccc(N=Nc2ccc3c(c2)OCCO3)c2cccnc12,0.45,-0.55
COc1cccc(-n2c(O)c(C=NCc3ccccn3)c3ccccc3c2=O)c1,1.7,0.77
CCN(C(=O)COC(=O)c1c(C)c(-c2ccccc2)nc2ccccc12)C1CCS(=O)(=O)C1 (configuration not stated),1.1,-0.19
Cc1c(NC(=S)NC(NC(=O)C(C)C)C(Cl)(Cl)Cl)c(=O)n(-c2ccccc2)n1C (configuration not stated),0.17,-1.2
CC(=O)c1cccc(NC(=O)CN2C=NS(=O)(=O)c3ccc(C)cc32)c1,0.45,-0.43
CN(C)CCCn1c2c(c(SCC(=O)Nc3ccc4c(c3)OCO4)nc1=O)CCCC2,0.23,0.69

# In the list so far, nine contain a Cl atom:
SMILES,KCNQ2 pot,KCNQ2 pot baseline
C=CCn1c(SCC(=O)NCCC2=CCCCC2)nc2ccc(Cl)cc2c1=O,1.2,0.86
O=S(=O)(c1ccc(Cl)cc1)N1CCNCC1,0.43,0.02
O=C(NCc1ccncc1)c1cc(S(=O)(=O)N2CCOCC2)c(Cl)cc1Cl,0.39,0.37
Fc1cccc(/C=N/Nc2nccnc2Cl)c1,0.02,0.03
CC(C)C(=O)N1CCN(c2nc(-c3ccc(Cl)cc3)cs2)CC1,1.3,-1.1
CC(C)C(=O)NC(Nc1cccc([N+](=O)[O-])c1)C(Cl)(Cl)Cl (configuration not stated),0.5,-0.3
COc1cc(S(=O)(=O)N2CCN(c3ccccc3)CC2)ccc1Cl,0.36,-0.67
Cc1nc(NC(=O)c2ccc(Cl)cc2)sc1-c1csc(Nc2cccc(F)c2)n1,0.02,0.67
Cc1c(NC(=S)NC(NC(=O)C(C)C)C(Cl)(Cl)Cl)c(=O)n(-c2ccccc2)n1C (configuration not stated),0.17,-1.2

# Compound activity deposited in PubChem BioAssay by Johns Hopkins Ion Channel Center.
